BJeLR viability: compounds reducing viability of BJeLR cells; BJeLR fibroblasts viability, CellTiterGlo ATP luminescence, 48 h; HRASV12, hTERT and SV40 LT/ST transformed; viability loss activity score, % (no concentration beside the values); 0.64% of 30,000 active; AID 2275; in the data active means viability loss activity score above about 50%; about a fifth of its hits are not listed in these tables;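 further: higher score means fewer live cells and less ATP luminescence; stock transfer was 50 or 100 nL into about 30 µL; 0% = vehicle wells and 100% = a reference killing control; one replicate is shown; the record names a cut of 85%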
A1 inh: A1 inhibition. 0.51% of 21,000 active. MEF A1-2A-BIM cells, caspase-Glo luminescence, 3 h; percent of clofoctol signal, DMSO as zero. caspase activation, % (no concentration beside the values);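 active means most replicate scores above 10, or exactly half above 10 with mean activity above 10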;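 further: effector caspase 3 and 7 activity cleaving a DEVD luciferin substrate; 50 nL library stock added to about 30 µL; numbers are from one replicate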
The depositor's hits bear a star; . = no result given; & = joins results of further samples.

SMILES | BJeLR viability | A1 inh
COc1ccc(-c2nsc(SCC(=O)N3CCCC3)n2)cc1 | 2.9 | -0.2
C[C@H](CO)N1C[C@H](C)[C@@H](CN(C)C)Oc2c(NC(=O)C3CC3)cccc2C1=O | -2.2 | .
O=C1Cc2ccccc2N1c1c(Cl)cccc1Cl | 4.3 | 0.8
CCCc1nc2sc3c(N4CCCC4)ncnc3c2c2c1CCCC2 | -0.9 | .
CC1CCCCC1NC(=O)c1ccc2c(=O)n(CCCN3CCCC3=O)c(=S)[nH]c2c1 (stereo unspecified) | 3.7 | 1.1
CNC(=O)N(c1ccccc1)c1ccccc1 | -1.1 | 0.5
COc1cccc(-c2nnc(-c3ccccc3)o2)c1 | 4.0 | -6.5
C[C@@H]1CN([C@@H](C)CO)C(=O)c2cccc(NS(=O)(=O)c3cccs3)c2O[C@H]1CN(C)C | 2.4 | .
C[C@H]1CN([C@@H](C)CO)C(=O)c2cc(NS(=O)(=O)c3ccc(Cl)cc3)ccc2O[C@@H]1CN(C)Cc1ccc(C(=O)O)cc1 | -2.6 | 1.9
C[C@@H]1CN([C@H](C)CO)C(=O)c2cccc(NC(=O)c3ccncc3)c2O[C@H]1CN(C)Cc1ccc(-c2ccccc2)cc1 | 2.4 | .
COC(=O)c1ccc2c(c1)nc(C)n2CCO | -5.5 | -0.4
C[C@H]1CN([C@@H](C)CO)C(=O)c2cccc(NC(=O)c3nc4ccccc4s3)c2O[C@H]1CN(C)C(=O)Nc1ccc(F)cc1 | -1.8 | .
CCOc1cccc2cc(C(=O)Nc3nccs3)c(=Nc3ccc(C)c(C)c3)oc12 | 4.5 | 2.0
Fc1ccc(Nc2ncnc3c2oc2ccccc23)cc1 | -3.0 | -3.5
C[C@H]1CN([C@@H](C)CO)C(=O)c2cc(N(C)C)ccc2O[C@@H]1CN(C)Cc1ccc(C(F)(F)F)cc1 | -0.8 | 0.0
C=C1[C@H](OC(=O)C(C)CC)[C@@H](OC(=O)C(C)C)[C@@H](O)C(C)(C)/C=C\[C@H](C)C(=O)[C@@]2(O)C[C@H](C)[C@H](O)[C@@H]2[C@H]1OC(=O)C(C)CC (stereo partly specified) | 3.1 | -0.2
CCCN(CCC)C(=O)c1cn(C)c2ccc(S(=O)(=O)N(CC)CC)cc2c1=O | -5.7 | .
Cc1noc(C)c1S(=O)(=O)Nc1ccc2c(c1)C(=O)N([C@@H](C)CO)C[C@H](C)[C@@H](CN(C)S(=O)(=O)c1ccccc1)O2 | -4.8 | 0.4
COc1ccc(CN(C)C[C@H]2Oc3c(NS(=O)(=O)c4ccc(Cl)cc4)cccc3C(=O)N([C@H](C)CO)C[C@@H]2C)cc1 | -2.6 | .
CCn1cc(C(=O)NCc2ccccc2Cl)c(=O)c2cc(S(=O)(=O)N(C)C)ccc21 | 4.1 | .
C[C@H](CO)N1C[C@H](C)[C@H](CN(C)Cc2ccccc2)Oc2c(NC(=O)c3cnccn3)cccc2C1=O | 2.4 | .
COc1ccc(C(=O)N2CCC(Cc3ccccc3)CC2)cc1OC | 2.5 | 0.5
CC(=O)N1CCc2cc(S(=O)(=O)NC(CC(C)C)C(=O)NCc3ccc(Cl)cc3)ccc21 (stereo unspecified) | 3.3 | .
Cc1c2cc(-c3cccs3)sc2nc2c(O)cc(=O)[nH]c12 | -3.0 | -0.7

The last 5 compounds of the part before open the next one:
SMILES | BJeLR viability | A1 inh
CCn1cc(C(=O)NCc2ccccc2Cl)c(=O)c2cc(S(=O)(=O)N(C)C)ccc21 | 4.1 | .
C[C@H](CO)N1C[C@H](C)[C@H](CN(C)Cc2ccccc2)Oc2c(NC(=O)c3cnccn3)cccc2C1=O | 2.4 | .
COc1ccc(C(=O)N2CCC(Cc3ccccc3)CC2)cc1OC | 2.5 | 0.5
CC(=O)N1CCc2cc(S(=O)(=O)NC(CC(C)C)C(=O)NCc3ccc(Cl)cc3)ccc21 (stereo unspecified) | 3.3 | .
Cc1c2cc(-c3cccs3)sc2nc2c(O)cc(=O)[nH]c12 | -3.0 | -0.7
CNC[C@@H]1Oc2c(NC(=O)c3nc4ccccc4s3)cccc2C(=O)N([C@@H](C)CO)C[C@H]1C | 5.8 | .
C[C@@H]1CN([C@H](C)CO)C(=O)c2cccc(NC(=O)c3cnccn3)c2O[C@@H]1CN(C)S(C)(=O)=O | -4.6 | .
CC1CCCC(C)N1CCNC(=O)Nc1ccc(Cl)cc1 (stereo unspecified) | 6.1 | .
CCOC(=O)CCCn1c(=O)c2cccn2c2ccccc21 | -4.5 | -0.2
Cc1cccc(N2C(=NC(=O)c3ccc(Br)cc3)SC3CS(=O)(=O)CC32)c1 (stereo unspecified) | -0.9 | .
Cc1cc(C(=O)Nc2cccc3c2O[C@H](CN(C)Cc2ccc4c(c2)OCO4)[C@H](C)CN([C@H](C)CO)C3=O)n(C)n1 | 1.1 | .
CCOC(=O)c1cc(Br)ccc1OCc1ccccc1Cl | -3.0 | -0.9
C[C@@H]1CN([C@H](C)CO)C(=O)c2cc(NS(=O)(=O)c3ccccc3)ccc2O[C@H]1CN(C)C(=O)Nc1ccccc1 | 2.4 | -0.2
S=C1NC(c2ccccc2)=NCN1c1ccc(Cl)cc1 | -0.7 | 0.0
CSc1nc(N2CCCCC2)c2c(c1C#N)CCCC2 | 3.4 | 1.7
Cc1ccnc(SCC(=O)N2CCc3ccccc3C2)n1 | 3.1 | 0.8
CCC(C)NC(=O)C1c2cc(OC)c(OC)cc2C(=O)N(C)C1c1ccc(OC)c(OC)c1 (stereo unspecified) | 3.8 | .
CCC1=NC(c2ccccc2OC)N(O)C1(C)C (stereo unspecified) | -1.6 | .
Cc1noc(C)c1NC(=O)Nc1cccc2c1O[C@H](CN(C)Cc1ccc(Oc3ccccc3)cc1)[C@H](C)CN([C@@H](C)CO)C2=O | -2.5 | .
COc1ccc(S(=O)(=O)N(C)C[C@H]2Oc3ccc(NS(=O)(=O)c4cccs4)cc3C(=O)N([C@@H](C)CO)C[C@@H]2C)cc1 | -2.8 | -0.1
CCCNC(=O)c1ccccc1N | 1.3 | 0.0
CNc1ccccc1C(=O)OC1OC(C)C(O)C(O)C1O (stereo unspecified) | -2.8 | 1.3
C[C@@H]1CN([C@@H](C)CO)C(=O)c2cc(NC(=O)Nc3cccc4ccccc34)ccc2O[C@@H]1CN(C)S(=O)(=O)c1cn(C)cn1 | -1.2 | -0.5
CCOc1cc(/C=C2\C(=N)N3C(C)=CSC3=NC2=O)ccc1OCc1ccc2c(c1)OCO2 | -0.9 | .
CCC12CN(S(=O)(=O)c3ccccc3)CC(CC)(CN(S(=O)(=O)c3ccccc3)C1)C2=O | -0.1 | 0.0
Cc1noc(C)c1S(=O)(=O)Nc1cccc2c1O[C@H](CN(C)Cc1ccc(C(=O)O)cc1)[C@H](C)CN([C@H](C)CO)C2=O | -9.0 | .
COc1ccc(S(=O)(=O)N(C)C[C@H]2Oc3ccc(NC(=O)Nc4ccc(F)cc4)cc3C(=O)N([C@@H](C)CO)C[C@@H]2C)cc1 | -0.4 | 0.3
C/C1=C/CC(=O)[C@@H](C)C[C@H]2OC(=O)C(CO)=C2CC1 | 3.0 | -0.6
C[C@@H]1CN([C@@H](C)CO)C(=O)c2cc(NC(=O)Nc3ccccc3)ccc2O[C@@H]1CN(C)Cc1ccccc1 | -2.0 | -0.5
Cc1ccc(S(=O)(=O)N(C)C[C@@H]2Oc3c(NC(=O)c4cnccn4)cccc3C(=O)N([C@H](C)CO)C[C@H]2C)cc1 | -0.2 | .
CCOC(=O)c1c(C)cc(O)c(C)c1O | -1.7 | 0.9
Cc1nc(SCC(=O)C(C)(C)C)[nH]c(=O)c1Cc1c(Cl)cccc1Cl | 6.3 | -0.8
Cc1ccc(S(=O)(=O)N(C)C[C@@H]2Oc3ccc(NS(=O)(=O)c4ccccc4)cc3C(=O)N([C@@H](C)CO)C[C@@H]2C)cc1 | 1.8 | 0.1
COc1ccccc1NC(=O)Cn1cnc2c(cnn2C(C)(C)C)c1=O | -2.7 | 0.4
C[C@H](CO)N1C[C@H](C)[C@H](CN(C)S(=O)(=O)c2ccc(Cl)cc2)Oc2ccc(NC(=O)Cc3ccccc3)cc2C1=O | 1.0 | -0.2
C[C@H](CO)N1C[C@H](C)[C@@H](CN(C)S(=O)(=O)c2ccccc2)Oc2c(NC(=O)Nc3ccc(C(F)(F)F)cc3)cccc2C1=O | 2.8 | .
Cc1ccc(S(=O)(=O)NC(=O)N2CCCN(c3ccc(C(F)(F)F)cn3)CC2)cc1 | 5.6 | 1.2
COc1ccc(NC(=O)Nc2ccc3c(c2)C(=O)N([C@H](C)CO)C[C@H](C)[C@H](CN(C)Cc2ccncc2)O3)cc1 | -2.3 | -0.7
O=C(Nc1ccc2c(c1)OCCO2)c1cccs1 | 19 | .
Cn1c(C(=O)O)c(CC(=O)N2CCCCCC2)c2ccccc21 | 4.1 | .
CC(=O)NC(=O)C1C=C2C=CC=CC2OC1=Nc1ccc(Cl)cc1 (stereo unspecified) | -2.0 | -1.1
CC(C)(C)c1cc(C(C)(C)C)cc(S(=O)(=O)CCc2ccccn2)c1 | 0.3 | .
C[C@H](CO)N1C[C@H](C)[C@H](CN(C)S(=O)(=O)c2cccs2)Oc2ccc(N(C)C)cc2C1=O | 0.5 | 0.5
CCc1ccccc1NC(=O)c1cc2c(=O)n3ccccc3nc2n1C | 23 | 0.6
COc1ccc(NC(=O)Nc2cccc3c2O[C@H](CN(C)C(=O)Nc2ccc4c(c2)OCO4)[C@@H](C)CN([C@@H](C)CO)C3=O)cc1 | -0.3 | .
Cc1nc2c(C(=O)NCC3CCCO3)cnn2c(C)c1Cc1ccccc1Cl (stereo unspecified) | -2.3 | -0.4
CCc1cccc(NC(=O)C(Cc2ccccc2)NS(=O)(=O)c2ccc3c(c2)CCC(=O)N3)c1 (stereo unspecified) | -2.2 | .
CCC(=O)Nc1ccccc1C(=O)OCC(=O)Nc1ccc(S(N)(=O)=O)cc1 | -4.4 | .
C[C@@H]1CN([C@H](C)CO)C(=O)c2cc(NC(=O)CCCCCC(=O)Nc3ccccc3N)ccc2O[C@@H]1CN(C)S(=O)(=O)c1ccc(Cl)cc1 | 6.7 | .
CN(Cc1ccccc1)S(=O)(=O)c1ccccc1 | -4.0 | 0.2
C[C@@H]1CN([C@H](C)CO)C(=O)c2cc(NC(=O)NC3CCCCC3)ccc2O[C@@H]1CN(C)S(=O)(=O)c1ccc(F)cc1 | 7.4 | -0.2
C[C@@H]1CN([C@@H](C)CO)C(=O)c2cc(NC(=O)Nc3ccc(F)cc3)ccc2O[C@H]1CN(C)Cc1ccncc1 | -2.0 | 0.9
Cc1nc(Oc2ccc(NC(=O)c3ccccc3)cc2)c2c3c(sc2n1)CCC3 | 8.4 | 29*
O=C(CSc1ccccn1)c1ccc(OCc2ccc(F)cc2)cc1 | -1.9 | -3.8
CC1Cc2ccccc2N1C(=O)CSc1nc(-c2ccco2)cc(C(F)(F)F)n1 (stereo unspecified) | 1.6 | 0.5
COC(=O)c1noc(C)c1C(=O)/C=C/N(C)C | 3.0 | 0.9
C[C@H]1CN([C@@H](C)CO)C(=O)c2cc(NC(=O)Nc3ccc(C(F)(F)F)cc3)ccc2O[C@@H]1CN(C)Cc1ccc2c(c1)OCO2 | -3.5 | 0.6
C[C@H](CO)N1C[C@H](C)[C@H](CN(C)Cc2ccccc2)Oc2c(NS(C)(=O)=O)cccc2C1=O | 2.0 | .
COC(=O)c1ccc(/C=C2\SC(N)=NC2=O)cc1 | 2.4 | 0.8
C[C@H]1CN([C@@H](C)CO)C(=O)c2cccc(N(C)C)c2O[C@@H]1CN(C)S(=O)(=O)c1ccccc1 | 4.6 | .
COc1ccc(C2SCC(C(=O)NCc3ccc(F)cc3)N2C(C)=O)cc1 (stereo unspecified) | 5.9 | 1.5
Nc1ccc(C(=O)OCc2nc3cc4ccccc4cc3[nH]2)cc1 | 2.5 | 0.1
CCCC12CCC(c3ccc(C#N)cc3)(CC1)CC2 | -4.5 | -0.8
C[C@@H]1CN([C@H](C)CO)C(=O)c2cccc(NC(=O)Nc3ccc(F)cc3)c2O[C@@H]1CN(C)Cc1ccc(-c2ccccc2)cc1 | 4.1 | .
CCCN1C[C@H](CSC)C[C@@H]2c3cccc4[nH]cc(c34)C[C@H]21 | 5.8&-4.6 | 0.8&0.0

Some of the entries above, set out differently.
Results follow in this order: BJeLR viability, A1 inh
C[C@H]1CN([C@@H](C)CO)C(=O)c2cccc(N(C)C)c2O[C@@H]1CN(C)S(=O)(=O)c1ccccc1
→ 4.6, .
COc1ccc(C2SCC(C(=O)NCc3ccc(F)cc3)N2C(C)=O)cc1 (stereo unspecified)
→ 5.9, 1.5
Nc1ccc(C(=O)OCc2nc3cc4ccccc4cc3[nH]2)cc1
→ 2.5, 0.1
CCCC12CCC(c3ccc(C#N)cc3)(CC1)CC2
→ -4.5, -0.8

Next part.
SMILES | BJeLR viability | A1 inh
C[C@H](CO)N1C[C@H](C)[C@H](CN(C)Cc2ccc(C(F)(F)F)cc2)Oc2c(NS(=O)(=O)c3ccc(F)cc3)cccc2C1=O | 3.6 | .
C[C@@H]1CN([C@H](C)CO)C(=O)c2cc(NC(=O)CCCCCC(=O)Nc3ccccc3N)ccc2O[C@H]1CN(C)Cc1ccncc1 | 1.1 | .
C[C@@H]1CN([C@H](C)CO)C(=O)c2cccc(NC(=O)NC3CCCCC3)c2O[C@@H]1CN(C)Cc1ccc(C(F)(F)F)cc1 | 4.3 | .
C[C@@H]1CN([C@@H](C)CO)C(=O)c2cccc(NS(=O)(=O)c3cccs3)c2O[C@@H]1CN(C)C(=O)Nc1ccc(F)cc1 | -3.9 | .
CCOC(=O)c1c(SC)nc2c(C(F)(F)F)cccc2c1N1CCCC1 | 0.9 | 0.0
COc1cccc(CN2CCN(C(=O)c3cccs3)CC2)c1 | 0.4 | 0.2

Not all compounds are listed, so the mix of outcomes need not match the whole.
